Calb FLC: C. albicans growth modulation with fluconazole; C. albicans CaCi-2 (fluconazole-resistant clinical isolate) + fluconazole, Alamar Blue growth, 48 h; growth inhibition, % (no concentration beside the values); 300,000 tested, 0.57% active;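 active means most replicates above 75%; inconclusive means exactly half above 75%; inactive means most below 75%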;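 further: all wells also contain fluconazole at 8 µg/ml as a sub-toxic cotreatment; 0% = median of DMSO wells and 100% = median of geldanamycin control wells; wells of about 8 µL received 7.5 nL stock; the first replicate is given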
Bfl-1 A1 inh: inhibitors of the anti-apoptotic protein A1, read as caspase activation | MEF A1-2A-BIM cells, Caspase-Glo 3/7 luminescence, 3 h; percent of clofoctol response, vehicle zero | 330,000 tested, 0.066% active | caspase activation, % (no concentration beside the values);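 active means over half of replicate activation scores above 10%, or exactly half above 10 with the replicate mean above 10; inconclusive means replicate mean below 10 yet half the replicates above 10; inactive means over half of replicates below 10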;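 further: wells of about 30 µL received 50 nL stock; many hits fall short of the cut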
T cruzi repl: T. cruzi replication inhibition. 300,000 tested, 1.4% active. inhibition, % (test concentration not listed). T. cruzi beta-gal in NIH3T3, luminescence, 90 h;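 active means mean inhibition across valid replicates above about 55%, limit read from the data; inconclusive means mean below that limit but half or more replicates reach it; inactive means mean below it, under half of replicates reach it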;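 further: signal also drops with host cell toxicity which is not excluded here; 0% = plate median of DMSO wells and 100% = zero luminescence signal; higher percent means less beta-gal luminescence so fewer parasites; stock transfer was 50 nL into about 50 µL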
Beta apoptosis: beta cell apoptosis inhibition. INS-1E cytokine-induced death, ATP luminescence, 48 h; percent of positive-control rescue, neutral wells zero. protection from apoptosis, % (test concentration not listed). 300,000 tested, 0.8% active. AID 435005;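 active means all replicates at 75% or more, or half of them and the mean; inconclusive means half reach 75% but not the mean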;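 further: 0% = cytokine-treated negative control wells and 100% = positive control rescue; higher means more ATP so stronger rescue from cytokine killing; wells of about 40 µL received 100 nL stock; the first replicate is given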
MLL AF4-AF9 inh: MLL-AF4/AF9 protein interaction inhibition. AlphaScreen, biotin-AF4 peptide binding to FLAG-AF9. 350,000 tested, 0.47% active. inhibition, % at 10 µM. AID 651704;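 active means every replicate reaching a set inhibition limit, whatever the replicate mean, cut at about 25% in these data; inconclusive means mean inhibition reaches that limit but some replicates miss it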;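 further: 0% = plate neutral control median and 100% = total signal loss; the record names both 10 and 1 µM as test concentration; the first replicate is given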
Vif TR-FRET: HIV-1 Vif–A3G interaction blockers – biochemical, TR-FRET, GST-Vif 1-94, biotin-A3G peptide, dose response retest, primary screen (AID 1117319); TR-FRET GST-Vif / biotin-A3G peptide binding; higher % means a stronger effect; test concentration not given here; strong numbers were not always called active; inhibition, %, or IC50 in µM where a hit was titrated; 260,000 tested, 0.57% active;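 active means above the screen mean plus three standard deviations and confirmed in dose response; inconclusive means results disagree or hit not tested in dose response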;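 further: Vif residues 1-94 fused to GST binding biotinylated APOBEC3G peptide 110-148; 0% = full assay without inhibitor and 100% = GST in place of GST-Vif; retest series ran down from 100 µM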
LANA-H2A inh: blocks KSHV LANA binding to histone H2A/H2B | Q9QR71 | cell-free LANA-H2A/H2B peptide, fluorescence polarization | inhibition, % (test concentration not listed) | 320,000 tested, 0.6% active; in the data active means inhibition mostly above about 10%, no sharp cut-off; inactive means mostly below about 6.7%;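 further: stock transfer was 7.5 nL into about 10 µL; 0% = median of vehicle wells and 100% = median of positive control wells; one replicate is shown; the record names a cut of 25% in any replicate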
Target sequence (Q9QR71 whole entry, looked up): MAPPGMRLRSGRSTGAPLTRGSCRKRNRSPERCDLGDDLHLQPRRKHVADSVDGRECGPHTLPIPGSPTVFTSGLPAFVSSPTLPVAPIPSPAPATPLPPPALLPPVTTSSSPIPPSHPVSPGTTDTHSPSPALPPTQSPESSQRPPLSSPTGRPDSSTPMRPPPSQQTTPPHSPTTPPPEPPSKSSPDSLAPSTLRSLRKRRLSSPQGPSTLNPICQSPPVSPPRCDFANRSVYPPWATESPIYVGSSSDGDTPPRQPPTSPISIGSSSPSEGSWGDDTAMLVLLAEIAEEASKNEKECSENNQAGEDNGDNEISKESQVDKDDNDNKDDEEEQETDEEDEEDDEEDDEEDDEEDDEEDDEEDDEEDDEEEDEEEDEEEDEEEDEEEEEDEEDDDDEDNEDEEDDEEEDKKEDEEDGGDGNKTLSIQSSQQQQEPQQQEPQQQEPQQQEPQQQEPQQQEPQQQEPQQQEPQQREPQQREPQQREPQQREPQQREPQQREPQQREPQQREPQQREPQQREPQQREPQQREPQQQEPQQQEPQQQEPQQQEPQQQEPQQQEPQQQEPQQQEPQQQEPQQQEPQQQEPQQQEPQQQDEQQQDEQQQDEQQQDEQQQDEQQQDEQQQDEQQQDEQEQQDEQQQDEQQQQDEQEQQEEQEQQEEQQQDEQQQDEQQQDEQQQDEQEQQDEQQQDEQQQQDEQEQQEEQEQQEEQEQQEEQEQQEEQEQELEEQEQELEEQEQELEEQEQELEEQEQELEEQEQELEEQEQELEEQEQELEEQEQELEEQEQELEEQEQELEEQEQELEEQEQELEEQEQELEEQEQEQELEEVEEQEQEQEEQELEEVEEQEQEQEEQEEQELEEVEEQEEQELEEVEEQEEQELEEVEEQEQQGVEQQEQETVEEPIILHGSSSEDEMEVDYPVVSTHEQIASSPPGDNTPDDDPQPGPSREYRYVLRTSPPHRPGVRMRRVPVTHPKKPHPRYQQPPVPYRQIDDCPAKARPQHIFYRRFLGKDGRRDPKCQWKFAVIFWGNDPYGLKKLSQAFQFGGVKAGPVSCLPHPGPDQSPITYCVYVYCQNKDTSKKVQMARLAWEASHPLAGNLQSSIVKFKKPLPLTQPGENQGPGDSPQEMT
RanGTP-Imp inh: disruptors of Ran-importin-beta complex formation – biochemical, FRET, CFP-Ran, YFP-importin-beta, homogeneous, primary screen. cell-free CFP-Ran/YFP-importin-beta FRET ratio. inhibition, % (no concentration beside the values). 300,000 tested, 1.1% active. AID 2216;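 active means most replicates above 15%; inconclusive means exactly half above 15%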;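 further: 0% = DMSO wells and 100% = Ran loaded with GDP instead of GTP; wells of about 40 µL received 100 nL stock; the first replicate is given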
* marks the source's active call; other numbers are inactive results; ? = inconclusive; . = no result given; & = joins results of further samples.

SMILES	Calb FLC	Bfl-1 A1 inh	T cruzi repl	Beta apoptosis	MLL AF4-AF9 inh	Vif TR-FRET	LANA-H2A inh	RanGTP-Imp inh
CSc1nc2ccc(NC(=O)c3ccccn3)cc2s1	-8	-7.7	-19	2	-1.5	.	-1.5	-1.5
Cc1ccc(C2=[N+]([O-])C3(CCCCC3=O)N(O)C2(C)C)cc1 (stereo not drawn)	-1	0.9	-1	.	.	11%	8.0	4.5
Cc1noc(C)c1C(=O)N1CCN(c2cccc(Cl)c2)CC1	33	0.5	-4	-3	-2.0	-9%	-0.3	1.2
Cc1nn2c(-c3cccc(NC(=O)CN4CCOCC4)c3)nnc2c2ccccc12	-5	-1.1	-3	10	-1.8	.	-3.1	?
Cc1cccn2c(CNCC3(c4ccccc4)CCCC3)c(C(=O)N3CCOCC3)nc12	4	0.1	-16	-3	-7.9	12%	-9.9	-1.4
CSc1nc2nc(C)cc(-c3ccccc3)n2n1	4	1.1	1	-1	.	-9%	-4.9	1.0
O=C(NCc1ccccc1CN1CCCC1)c1cccc(S(=O)(=O)Nc2ccc(F)cc2)c1	.	1.0	.	-2	3.9	-10%	-0.1	.
O=[N+]([O-])c1ccc2nc(-c3ccc(Cl)cc3)[nH]c2c1	-7	-2.4	-2	28	7.3	?	2.3	4.5
O=C(O)COc1ccccc1/C=N/NC(=O)COc1ccc(-c2ccccc2)cc1	-5	-0.7	11	-7	0.2	-1%	1.6	-3.4
N#CCSc1nnc(C2CCCCC2)n1-c1ccccc1	-11	0.1	7	-1	.	2%	2.1	-4.0
COc1ccc(OC)c(CN2CCC(CO)(CCOc3ccccc3)CC2)c1	-15	1.1	3	-6	2.6	.	0.8	-2.0
Cc1cc(C)cc(C(=O)NC(CC(N)=O)c2ccc(NCCN3CCOCC3)c([N+](=O)[O-])c2)c1 (stereo not drawn)	-1	1.1	5	-7	-5.3	.	-3.9	-2.7
Cc1cccc(N2CC(C(=O)Nc3nnc(SCCC4OCCO4)s3)CC2=O)c1 (stereo not drawn)	-3	-0.8	-9	-1	-2.7	8%	2.7	0.8
COC(=O)/C=C/C(=O)N1CCN(c2cccc(Cl)c2)CC1	8	0.7	-37	-20	.	.	-1.6	2.7
Cc1ccc(NC(=O)NC(=O)CN2C(=O)NC3(CCCCCCC3)C2=O)c(C)c1	-4	-0.8	20	-5	-19	0%	4.0	-0.6
CCn1c(CNc2ccc(Cl)cc2)nnc1SCC(=O)NCc1ccccc1	7	0.4	9	-5	.	-5%	0.0	1.0
O=C(O)C1Oc2cc3ccccc3cc2O1	0	-0.3	-8	-1	8.5	25%	-2.2	-0.9
O=[N+]([O-])c1ccc(S(=O)(=O)N2CCN(C3CCN(Cc4ccccc4)CC3)CC2)cc1	6	0.3	?	0	4.2	.	3.8	-0.2
OC1C=CSc2nc3ccccc3n21 (stereo not drawn)	1	0.8	2	-6	.	10%	3.0	2.2
Cc1cccc(NC(=O)C(=O)C2C(=O)Nc3ccccc32)c1 (stereo not drawn)	-11	-1.5	2	-3	.	?	0.8	2.4
COc1ccc(C)cc1NS(=O)(=O)c1ccc(-c2cnc(C3CC3)o2)cc1	7	.	9	.	-12	.	.	1.7
COc1ccc(N=Nc2ccc(CO)cc2)cc1	-13	-3.8	1	-1	1.8	.	-1.0	-0.8
Cn1c(C(=O)N2CCc3ccccc3C2)cc2c(=O)n3ccccc3nc21	-2	-0.3	-14	-3	.	1%	2.2	1.2
CCN1/C(=C\C(C)=O)Sc2ccc(OC)cc21	-8	2.0	-5	.	.	-1%	0.5	5.7
CCNc1nc(NOC)nc(OCC#N)n1	-6	0.1	-10	-15	-2.8	1%	4.0	12
O=C(O)CN1C(=O)c2cccc(Oc3ccc(Cl)cc3)c2C1=O	16	-0.6	-12	-1	.	-3%	2.3	-2.4
CC1(C(=O)N(CC(=O)NC2CCCC2)C2CCCC2)CC(=O)N=C2C=CC=CN21 (stereo not drawn)	42	-0.4	-8	-4	.	5%	1.7	-3.1
CC(OC(=O)c1nc(Cl)ccc1Cl)C(=O)Nc1ccccc1F (stereo not drawn)	5	-1.7	-8	-1	1.4	0%	9.2	0.4
CCCCn1c(N)c(N(CCC(C)C)C(=O)c2ccc([N+](=O)[O-])o2)c(=O)[nH]c1=O	5	0.6	39	-1	0.8	.	1.8	3.6
S=C(Nc1ccc(Cl)cc1)NC1CC2CCCC(C1)N2C1CC1 (stereo not drawn)	8	1.5	0	-6	-5.8	32%	-3.1	4.2
Cc1ccc(-n2c(C)cc(C(=O)COc3c(CO)cc(F)cc3CO)c2C)cc1C	27	0.6	30	11	.	.	0.9	0.3
CC(=O)NC(Cc1ccccc1C)C(=O)NC1CCN(C(=O)c2cccc(C)c2)CC1 (stereo not drawn)	35	1.2	-13	-2	0.1	-8%	-1.0	-3.5
CN1CCc2c(sc(NC(=O)Cc3ccccc3)c2C(N)=O)C1	-1	-0.3	-26	-11	3.6	.	-0.3	134*
Cc1noc(C)c1C(=O)NCCc1c(C)[nH]c2ccccc12	-1	-0.2	12	-8	2.8	.	0.5	0.0
Oc1c(C(c2cccc(F)c2)N2CCN(Cc3ccccc3)CC2)sc2ncnn12 (stereo not drawn)	6	-0.8	-9	-6	5.2	7%	-5.1	6.1
CCc1cc2c(=O)[nH]c(-c3ccccn3)nc2s1	20	-0.5	60*	66	8.5	-11%	1.4	5.2

Record cards, as listed above. Order of screens: Calb FLC | Bfl-1 A1 inh | T cruzi repl | Beta apoptosis | MLL AF4-AF9 inh | Vif TR-FRET | LANA-H2A inh | RanGTP-Imp inh
Cc1cccn2c(CNCC3(c4ccccc4)CCCC3)c(C(=O)N3CCOCC3)nc12 reads 4 | 0.1 | -16 | -3 | -7.9 | 12% | -9.9 | -1.4
O=[N+]([O-])c1ccc(S(=O)(=O)N2CCN(C3CCN(Cc4ccccc4)CC3)CC2)cc1 reads 6 | 0.3 | ? | 0 | 4.2 | . | 3.8 | -0.2
Cc1ccc(NC(=O)NC(=O)CN2C(=O)NC3(CCCCCCC3)C2=O)c(C)c1 reads -4 | -0.8 | 20 | -5 | -19 | 0% | 4.0 | -0.6
S=C(Nc1ccc(Cl)cc1)NC1CC2CCCC(C1)N2C1CC1 (stereo not drawn) reads 8 | 1.5 | 0 | -6 | -5.8 | 32% | -3.1 | 4.2
CCn1c(CNc2ccc(Cl)cc2)nnc1SCC(=O)NCc1ccccc1 reads 7 | 0.4 | 9 | -5 | . | -5% | 0.0 | 1.0

Later entries
SMILES	Calb FLC	Bfl-1 A1 inh	T cruzi repl	Beta apoptosis	MLL AF4-AF9 inh	Vif TR-FRET	LANA-H2A inh	RanGTP-Imp inh
COC(=O)c1ccc(C(=O)OC)c(NC(=S)N2CCCC2)c1	8	0.2	-17	-3	-1.3	-4%	-1.7	11
CC(C)(C)NC(=O)CSc1nc2ccc(NC(=O)CSc3nnnn3Cc3ccccc3)cc2s1	-12	-0.7	12	16	.	3%	3.7	-2.5
COc1ccc(NC(=O)CNC(=O)Cn2c(C)cc3ccccc3c2=O)cc1OC	-22	0.2	11	0	-1.5	-6%	4.3	-1.3
CC1CCC(NC(=O)C2CCN(C(=O)Nc3ccccc3)CC2)CC1 (stereo not drawn)	.	0.1	.	5	-1.9	-9%	-2.1	.
CCCCNC(=O)CN1C(=O)NC2(CCCc3ccccc32)C1=O (stereo not drawn)	-8	0.0	1	-4	.	6%	-6.3	4.6
Cc1ccccc1NC(=O)N1CCN(c2ncccn2)CC1	2	-0.1	-13	10	-0.3	.	-7.4	3.4
Cn1c(Cn2nnc3ccccc32)nnc1SCC(=O)c1ccc(F)cc1	0	1.0	-10	-3	-5.8	-3%	0.9	-0.4
COc1c(Cl)cnn(-c2ccc(Cl)c(Cl)c2)c1=O	4	-2.3	-21	.	1.9	-43%	-5.2	-4.8
COC(=O)c1nc2ccc(C)cn2c1F	-1	-1.8	7	4	10	7%	6.5	?
Cc1ccccc1-c1noc(N)c1C#N	0	0.3	-23	-5	.	5%	-2.3	-1.6
Cc1cccc(N2CCN(c3ccc(NC(=O)/C=C\C(=O)O)cc3)CC2)c1	-5	-0.2	10	9	3.2	27%	1.9	3.2
COc1cc(C2N(C)CCC3(OCCO3)C2(C)C)cc(OC)c1OC (stereo not drawn)	4	0.0	-6	-2	.	.	1.6	2.0
CCN(CC1COc2ccccc2O1)C(=S)Nc1ccccc1 (stereo not drawn)	-11	-0.5	-81	-2	.	3%	0.5	0.4
N#Cc1nc(COc2ccc(Br)cc2)oc1NCCN1CCOCC1	-5	0.5	16	-5	.	3%&-2%	-3.4	3.6
CCC(C(=O)Nc1ccon1)c1ccccc1 (stereo not drawn)	0	0.7	-1	-2	-9.2	.	2.5	2.3
CCCCn1c(N)c(N(CCOC)C(=O)Cn2c(=O)cnc3ccccc32)c(=O)[nH]c1=O	.	-0.5	.	-2	0.9	-2%	1.5	.
CC(C)c1cccc(C(C)C)c1NC(=O)c1ccc(OCC(=O)NCc2ccccc2)cc1	-3	0.8	3	-4	.	-1%	2.4	4.8
CSc1ncccc1C(=O)OC(C)C(=O)Nc1cccc(S(=O)(=O)N2CCOCC2)c1 (stereo not drawn)	.	-1.9	.	8	1.7	-6%	-1.2	.
CC(CN1CCCC1)OC(=O)c1ccc(Cl)cc1 (stereo not drawn)	-55	0.4	-1	.	-4.4	.	-0.2	?
NC(=O)c1c(NC(=O)CN2C(=O)CCC2=O)sc2c1CCCCC2	0	-0.2	-11	1	0.2	5%	-2.7	3.4
CCOc1ccccc1OCCCC(=O)N(C)CC(=O)Nc1cc(C)ccc1C	-3	1.1	-12	-1	0.3	-5%	-1.1	3.7
COc1cccc(NC(=O)c2cc(OC)c(OC)c(OC)c2Br)c1	-4	-0.3	-14	0	1.6	-2%	-4.8	7.4
CCCN1CN(c2ccccc2)C(=S)N(c2ccccc2)C1	-3	-0.5	-6	-1	-1.9	-4%	-0.1	-1.4
CC(C)C(OC(=O)c1nsc(Cl)c1Cl)C(=O)NC(C)(C)C (stereo not drawn)	3	0.2	-14	0	-1.4	-10%	3.4	1.6
c1ccc(-c2nnnc3ccccc23)cc1	19	-0.8	-24	-10	-2.4	-2%	-1.2	0.9
Cc1cccc(C(=O)NCCC(=O)Nc2nc(C)c(Cc3ccc4c(c3)OCO4)s2)c1	-6	1.9	18	4	0.7	8%	0.2	?
O=C(CSc1ccsc1[N+](=O)[O-])NCc1ccccc1	6	-0.7	9	-5	-2.7	-3%	.	-0.6
COC(=O)C1=C(C)N(C(C)C)C(=O)C1(NC(C)=O)C(F)(F)F (stereo not drawn)	-2	-0.4	-10	1	.	-5%	-4.4	-2.8
CCOc1ccc(NC(=O)c2sccc2-n2cccc2)cc1	-1	0.1	30	0	1.9	-2%	-2.5	0.2
COC(=O)CSc1nc2c(c(-c3ccc(C)o3)c1C#N)CCCC2	16	0.9	0	3	.	25%	-3.8	?
COC(=O)C1C(=O)OC(C)(C)C1C(C)C(=O)c1ccccc1 (stereo not drawn)	-12	.	-1	-13	.	-5%	2.9	-3.5

Screening data from PubChem.
